Screening results from PubChem.
MLL AF4-AF9 inh: inhibitors of human MLL-AF4/AF9 interaction; P42568; inhibition, % at 10 µM; 0.47% of 350,000 active; AID 651704; AlphaScreen, biotin-AF4 peptide binding to FLAG-AF9;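 active = every replicate reaching a set inhibition limit, whatever the replicate mean, cut at about 25% in these data; inconclusive = mean inhibition reaches that limit but some replicates miss it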;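 also: 0% = plate neutral control median and 100% = total signal loss; the record names both 10 and 1 µM as test concentration; the first replicate is given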
Target sequence (P42568 whole entry, looked up): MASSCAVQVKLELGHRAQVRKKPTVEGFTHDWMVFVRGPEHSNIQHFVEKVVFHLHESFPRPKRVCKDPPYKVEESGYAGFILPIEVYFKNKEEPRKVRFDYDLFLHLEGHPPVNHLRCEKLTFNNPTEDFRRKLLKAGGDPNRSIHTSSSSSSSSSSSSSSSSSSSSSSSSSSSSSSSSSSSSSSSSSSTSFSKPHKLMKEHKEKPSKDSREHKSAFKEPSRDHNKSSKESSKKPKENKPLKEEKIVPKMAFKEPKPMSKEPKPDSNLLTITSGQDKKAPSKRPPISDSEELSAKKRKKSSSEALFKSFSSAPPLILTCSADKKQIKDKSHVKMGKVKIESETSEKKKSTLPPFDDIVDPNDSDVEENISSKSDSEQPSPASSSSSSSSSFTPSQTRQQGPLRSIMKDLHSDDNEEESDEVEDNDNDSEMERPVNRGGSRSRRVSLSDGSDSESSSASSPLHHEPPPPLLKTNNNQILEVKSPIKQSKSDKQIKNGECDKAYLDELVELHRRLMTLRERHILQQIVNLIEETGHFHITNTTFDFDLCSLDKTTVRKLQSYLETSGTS
E coli growth: blocks Escherichia coli growth; OD600, 23 h; stronger effect = lower value; OD600 absorbance (test concentration not listed); 0.21% of 330,000 active; AID 1053175;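 active = OD600 absorbance below the run mean of sample wells minus 3.6 SD, in any replicate, cut at about 0.56 in these data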;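 also: stock transfer was 300 nL into about 60 µL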
FGF22 binding: binders of recombinant human FGF22 by thermal shift | 1.5% of 340,000 active | SYPRO orange fluorescence; percent of sucrose octasulfate shift, DMSO zero | calls only at 9.99 µM;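 active = melting point raised past a set limit in the mean and every replicate; inconclusive = no clear call; three in four hits are not shown here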
Target sequence (Q9HCT0 whole entry, looked up): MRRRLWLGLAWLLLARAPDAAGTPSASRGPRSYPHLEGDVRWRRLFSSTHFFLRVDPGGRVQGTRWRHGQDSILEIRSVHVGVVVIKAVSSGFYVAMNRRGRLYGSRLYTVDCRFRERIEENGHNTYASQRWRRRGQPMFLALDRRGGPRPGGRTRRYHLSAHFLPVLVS
RanGTP-Impb inh: disruptors of Ran-importin-beta complex formation – biochemical, FRET, CFP-Ran, YFP-importin-beta, homogeneous, primary screen; cell-free CFP-Ran/YFP-importin-beta FRET ratio; inhibition, % (test concentration not listed); 1.1% of 300,000 active; AID 2216;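 active = most replicates above 15%; inconclusive = exactly half above 15%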;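 also: 0% = DMSO wells and 100% = Ran loaded with GDP instead of GTP; wells of about 40 µL received 100 nL stock; the first replicate is given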
HNF4A DNA FP: change in binding of human HNF4 alpha to DNA; activity change, % at 10 µM; 0.3% of 360,000 active; P41235; HNF4a-FITC DNA binding, fluorescence polarization, 1 h; in the data active = activity change above about 30%, passing the limit was not always enough;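 also: controls were the assay level and a saturating level of protein; the project sought stronger binding though the title names inhibitors; some compounds called inactive have numbers as strong as hits; positive values seem to mean higher polarization but the record does not say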
UCH37 DUB inh: inhibitors of human deubiquitinating enzyme UCH37 | purified proteasome/UCH37, Ub-AMC cleavage fluorescence | inhibition, % (no concentration beside the values) | Q9Y5K5 | 0.33% of 330,000 active;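 active = mean of two replicates above 20%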;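 also: 0% = compound-free wells with enzyme and 100% = wells lacking proteasome; stock transfer was 100 nL into about 20 µL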
Target sequence (Q9Y5K5 whole entry, looked up): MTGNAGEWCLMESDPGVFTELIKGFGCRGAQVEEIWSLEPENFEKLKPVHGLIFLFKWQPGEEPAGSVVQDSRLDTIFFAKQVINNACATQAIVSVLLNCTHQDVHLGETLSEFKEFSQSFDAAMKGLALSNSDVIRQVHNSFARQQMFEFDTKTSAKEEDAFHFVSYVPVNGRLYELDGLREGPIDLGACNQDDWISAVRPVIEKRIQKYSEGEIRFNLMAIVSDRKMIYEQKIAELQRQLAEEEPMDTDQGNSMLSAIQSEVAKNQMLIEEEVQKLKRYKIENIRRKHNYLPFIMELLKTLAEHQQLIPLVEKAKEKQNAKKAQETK
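System: Proteasome-associated human UCH37 deubiquitinase; Input: 0.15 nM proteasome in added enzyme buffer; Also added: Ub-AMC substrate from 1 µM stock; Incubation: 30 min compound-proteasome preincubation then 25 min substrate reaction, room temperature; Detection: fluorescence, ex 355 nm, em 460 nm; Read-out: % inhibition of Ub-AMC cleavage fluorescence; Benchmarks: no-proteasome and no-compound wells.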
Vif TR-FRET: inhibitors of Vif binding to APOBEC3G peptide, primary screen, biochemical, TR-FRET, GST-Vif 1-94, biotin-A3G peptide, dose response retest (AID 1117319); one-dose inhibition, %; IC50 in µM for titrated hits; TR-FRET GST-Vif / biotin-A3G peptide binding; higher % means a stronger effect; test concentration not given here; strong numbers were not always called active; 0.57% of 260,000 active;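 active = above the screen mean plus three standard deviations and confirmed in dose response; inconclusive = results disagree or hit not tested in dose response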;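 also: Vif residues 1-94 fused to GST binding biotinylated APOBEC3G peptide 110-148; 0% = full assay without inhibitor and 100% = GST in place of GST-Vif; retest series ran down from 100 µM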
* hit, by the source's call; i = inactive; u = inconclusive; x = no result given; + = active, no number.

Order of results: HNF4A DNA FP | RanGTP-Impb inh | MLL AF4-AF9 inh | UCH37 DUB inh | FGF22 binding | E coli growth | Vif TR-FRET
CCN(CC)C(=O)CC(c1ccc(N(C)C)cc1)c1c(OC)cc(OC)c2c(-c3ccccc3)cc(=O)oc12 (stereo not drawn)
→ -3.0 | 0.7 | 15.7 | -0.8 | i | 0.704 | 3.5%
O=C(O)COCC(=O)Nc1ccc(-n2nc(C(F)(F)F)cc2-c2cccs2)cc1
→ -2.3 | 6.7 | -3.4 | -0.5 | i | 0.66 | -7.2%
Cc1cc(C)cc(N(C(=O)C2CCCC2)C2C=CS(=O)(=O)C2)c1 (stereo not drawn)
→ 0.2 | 2.0 | 7.4 | -0.2 | i | 0.697 | -5.0%
C/C(=N\OCC(=O)OCC(=O)N(Cc1ccccc1)C(C)(C)C)c1ccc2c(c1)OCO2
→ -2.4 | -1.7 | -0.7 | x | x | x | 8.7%
CCc1ccc(NC(=O)Cc2cn(C)c3ccccc23)cc1
→ -1.7 | 3.0 | x | 2.1 | x | 0.674 | 19.6%
O=C(COC(=O)CNC(=O)c1cc(Cl)cc([N+](=O)[O-])c1)NC(=O)NCc1ccco1
→ 1.7 | x | -3.5 | 0.6 | i | 0.669 | 5.4%
CCCCC(=O)Nc1ccc2c(c1)nc1n2CCN(CCOC)C1
→ 1.7 | 3.2 | 1.1 | -2.5 | i | 0.677 | u
COc1ccc(-c2cc(C(=O)Nc3cc(OC)c(OC)c(OC)c3)no2)cc1OC
→ -0.4 | -0.4 | 0.7 | -3.5 | i | 0.751 | -1.1%
COc1ccc(C(=O)Nn2c(SCc3ccc([N+](=O)[O-])cc3)nc3ccccc3c2=O)cc1
→ -2.1 | -2.8 | x | -3.1 | x | 0.787 | 3.4%
OC1CCN(C(=S)NCCc2ccccc2)CC1
→ 0.9 | 0.5 | x | 0.7 | x | 0.681 | -0.4%
CCn1nnnc1SCC(=O)Nc1nc(C)c(C)s1
→ 0.0 | -1.8 | x | -0.8 | x | 0.67 | x
CCN(CC)c1nc2c(c(=O)[nH]c(=O)n2C)n1Cc1ccccc1
→ -7.7 | -0.4 | 1.4 | 0.7 | i | 0.688 | x
CN(CC(=O)Nc1cccc(F)c1)C(=O)C1(c2ccccc2)CC1
→ -1.4 | x | 1.8 | 3.1 | i | 0.721 | -3.4%
O=C1c2ccccc2C(O)(c2ccccc2)N1CCc1ccccc1 (stereo not drawn)
→ -1.7 | 6.5 | -2.1 | 6.9 | i | 0.679 | x
CCc1ccc(NC(=O)C(C)OC(=O)CCN2C(=O)C3CC=CCC3C2=O)cc1 (stereo not drawn)
→ 3.0 | x | -20.7 | 1.0 | i | 0.689 | 12.3%
CC(=O)Nc1cccc(CP(=O)(c2ccccc2)c2ccccc2)c1
→ 0.9 | 7.2 | -4.1 | 2.3 | i | 0.667 | u
C=CCn1c(-c2csc(-c3ccccc3)n2)n[nH]c1=S
→ 1.1 | 0.8 | x | 1.2 | x | 0.703 | -15.6%
O=C(COC(=O)c1ccc(Br)o1)NCc1ccccc1Cl
→ -0.1 | x | -5.2 | 3.4 | i | 0.704 | x
CC(=O)c1cccc(NC(=O)/C(=C\c2ccco2)NC(=O)c2cccs2)c1
→ 3.3 | 3.4 | x | 5.9 | x | 0.667 | 6.6%
COc1ccc(CNC(=O)C(c2ccncc2)N(C(=O)Cc2cccs2)c2cccnc2)cc1 (stereo not drawn)
→ -1.2 | -1.5 | -0.7 | 0.2 | i | 0.652 | 2.9%

Order of results: HNF4A DNA FP | RanGTP-Impb inh | MLL AF4-AF9 inh | UCH37 DUB inh | FGF22 binding | E coli growth | Vif TR-FRET
O=C(CCc1ccccc1)Nc1ccccc1C(=O)N1CCOCC1
→ 3.5 | -2.6 | -2.8 | 6.7 | i | 0.651 | -8.9%
CC1Cc2cc(/C(O)=C3/C(=O)C(=O)N(CCCn4ccnc4)C3c3cccnc3)ccc2O1 (stereo not drawn)
→ 2.3 | 2.2 | x | 9.5 | x | 0.627 | -3.7%
NC(=O)CCc1nc2cc(C(F)(F)F)ccc2n(Cc2ccccc2)c1=O
→ 1.6 | 1.2 | -0.6 | 1.1 | i | 0.662 | -10.2%
CCCCN(CC)CCNC(=O)c1cc2c(=O)[nH]c3ccc(C)cc3c2s1
→ 1.8 | -2.5 | 5.1 | -448.9 | i | 0.661 | -1.4%
CCOC(=O)c1c(C)[nH]c(C(=O)COC(=O)CNC(=O)c2ccc(Cl)cc2Cl)c1C
→ -3.7 | 0.7 | x | -0.5 | x | 0.69 | 5.5%
CC(=O)N1CC(C)Sc2ccc(S(=O)(=O)NCc3ccc(Cl)cc3)cc21 (stereo not drawn)
→ 0.1 | 0.2 | -1.6 | 1.9 | i | 0.707 | 4.9%
CCOc1cc(NC(=S)NCc2ccco2)c(OCC)cc1NC(=O)c1ccco1
→ -0.3 | u | 1.6 | 1.1 | i | 0.684 | x
CCOC(=O)c1[nH]ncc1CN1CCCC(C(=O)c2ccc(C(C)(C)C)cc2)C1 (stereo not drawn)
→ -0.2 | 1.3 | 4.2 | 5.2 | x | 0.723 | 4.7%
CN1C(=O)[C@@H]2[C@@H]3C[C@@H]([C@H]4ON=C(c5ccc(Cl)cc5)[C@@H]34)[C@@H]2C1=O
→ -0.8 | 2.8 | 0.6 | 1.9 | i | 0.623 | x
CCOP(=O)(c1ccccc1)C1(O)CCCCC1 (stereo not drawn)
→ 4.7 | 1.9 | x | 3.4 | x | 0.72 | -5.1%
O=C(COc1ccc(C(=O)c2ccccc2)cc1)NC1CCCCCC1
→ 1.3 | -0.8 | x | 3.8 | x | 0.637 | 6.0%
COC(=O)CCC/C=C1/SCC(NC(=O)c2ccccc2)C1NC(C)=O (stereo not drawn)
→ 2.9 | 4.4 | -1.1 | 0.4 | i | 0.658 | -1.1%
COCCOc1ccc(C(F)(F)F)cc1Nc1nc2ccccc2o1
→ 1.0 | -1.7 | x | -4.2 | x | 0.767 | 15.2%
NS(=O)(=O)c1cc(Cl)c(Cl)c(S(N)(=O)=O)c1
→ 3.5 | x | 11.2 | 0.1 | i | 0.671 | x
O=C(O)Cc1c(-c2ccccc2Cl)c2cc(Br)ccc2[nH]c1=O
→ 3.9 | u | -2.1 | 6.4 | i | 0.664 | -1.2%
O=C(O)/C=C/c1cccc(NC(=O)Nc2ccc([N+](=O)[O-])cc2)c1
→ 1.1 | -2.7 | 1.7 | 9.8 | + | 0.67 | 1.2%
CC(C)OCCCNCc1cccs1
→ -0.9 | 2.2 | x | 7.1 | x | 0.648 | -0.2%
COC(=O)CCNS(=O)(=O)c1ccc2ccccc2c1
→ 0.8 | -2.1 | -7.6 | 0.1 | i | 0.649 | 3.0%
O=C(Nc1ccc(Cl)c(S(=O)(=O)N2CCOCC2)c1)[C@@H]1CCCN1C(=O)c1cccs1
→ 3.3 | x | -0.2 | 2.7 | i | 0.698 | x
CC(=O)NS(=O)(=O)c1ccc(NC(=O)CSc2ccccc2)cc1
→ -1.5 | -0.3 | -21.5 | -0.7 | i | 0.66 | -0.2%

Order of results: HNF4A DNA FP | RanGTP-Impb inh | MLL AF4-AF9 inh | UCH37 DUB inh | FGF22 binding | E coli growth | Vif TR-FRET
COc1ccc(OCC(=O)Nc2ccc(N3CCN(C(=O)c4ccccc4C)CC3)cc2)cc1
→ 1.9 | 1.7 | 0.6 | 3.6 | i | 0.661 | -4.7%
Cc1cc(C)n(CCOc2nonc2N)n1
→ 1.5 | 1.8 | x | 4.2 | x | 0.676 | -2.9%
CC1CCN(c2ccc3c(c2)S(=O)(=O)c2cccc(C(=O)NC4CCCCC4)c2C3=O)CC1
→ 40.2* | x | -0.7 | 0.0 | i | 0.68 | x
Cc1cc(C)n(-c2cc(N3CCN(S(=O)(=O)c4ccc(Cl)cc4)CC3)ccc2[N+](=O)[O-])n1
→ -0.5 | 0.8 | u | 4.5 | i | 0.746 | 7.1%
CC(=O)N1CCc2cc(S(=O)(=O)NCCC(=O)NCCc3ccc(Cl)cc3)ccc21
→ 2.6 | -2.2 | -8.4 | -1.6 | i | 0.709 | x
COc1ccc(C2CC(c3cccs3)=NN2C(=O)CCC(=O)O)cc1OC (stereo not drawn)
→ -2.4 | -4.4 | 4.2 | x | x | x | 10.6%
COCCCN1C(=O)C(=O)/C(=C(/O)c2ccc(C)cc2)C1c1ccccc1 (stereo not drawn)
→ 0.6 | 1.0 | x | 4.2 | x | x | 30.9%
Cc1cccc(C(=O)NCCNC(=O)c2cnccn2)c1
→ 2.5 | 2.1 | -0.7 | 2.7 | i | 0.665 | x
COc1ccc2[nH]c3c(c2c1)CCN1C(=O)C(CC(=O)NCc2ccco2)C[C@H](C(=O)N2CCOCC2)[C@@]31CCC1CCCC1 (stereo partly drawn)
→ 1.1 | x | 4.8 | 2.1 | i | 0.688 | x
NCCCCCNC(=O)c1nc[nH]c1C(=O)NCC(=O)OCc1ccccc1
→ -0.1 | x | -3.0 | -1.0 | i | 0.67 | x
Cc1ccc(C)n1-c1ccc(C(=O)/C=C/N(C)C)cc1
→ 17.4 | -1.6 | 1.0 | 13.2 | i | 0.704 | 11.3%
O=C(N[C@@H](Cc1ccccc1)C(=O)O)c1c(F)c(F)c(F)c(F)c1F
→ 5.5 | 1.7 | -4.3 | 3.8 | i | x | -6.3%
CC(C(=O)Nc1ccccc1)N1CCN(C(=O)c2ccco2)CC1 (stereo not drawn)
→ -5.3 | x | -0.5 | -2.8 | i | 0.695 | x
CCOC(=O)CCCCCC(=O)Nc1ccc2c(c1)C(=O)N([C@H](C)CO)C[C@H](C)[C@H](CN(C)C(=O)C1CCCCC1)OCCCC[C@@H](C)O2
→ 1.1 | x | 2.4 | x | i | x | -0.7%
CCCCNC(=O)C1(C)CCN1C(=O)c1cc(-c2ccccc2)cs1 (stereo not drawn)
→ 1.7 | x | -3.8 | x | i | x | x
Cc1nnc(SCC(N)=O)n1CC1CCCO1 (stereo not drawn)
→ 2.0 | 0.3 | x | 3.3 | x | 0.732 | -8.6%
O=C(Cc1c(C(=O)O)[nH]c2ccccc12)NCCN1CCN(c2ccccc2F)CC1
→ -2.8 | 3.1 | x | x | x | x | 2.6%
CC1(C)C2CCC(C2)C1(C)NC(=O)CN1CCOCC1 (stereo not drawn)
→ 3.9 | x | x | 0.9 | x | 0.731 | -1.8%
CC(C)Oc1ccc(CNC(=O)CC(c2ccccc2)c2cc(Cl)ccc2O)cc1 (stereo not drawn)
→ -1.1 | 2.2 | x | 2.8 | x | 0.729 | 15.5%
CN(C)/C=N/c1cnc(C(=O)c2ccc(Cl)cc2)n1C
→ 3.7 | 9.1 | x | x | x | x | 0.1%

Order of results: HNF4A DNA FP | RanGTP-Impb inh | MLL AF4-AF9 inh | UCH37 DUB inh | FGF22 binding | E coli growth | Vif TR-FRET
COc1ccc(S(=O)(=O)N2CCOC2CNC(=O)C(=O)NCC(C)C)cc1 (stereo not drawn)
→ 3.9 | -2.3 | -0.6 | -1.4 | i | 0.715 | x
Cc1[nH]c2ccccc2c1C(=O)CN1CCSCC1
→ -1.6 | -2.0 | x | 1.6 | x | 0.69 | 0.2%
CCOC(=O)c1c(NC(=O)c2cc(C)oc2C)sc(C(=O)Nc2ccc(Cl)cc2)c1C
→ -2.4 | -1.0 | x | -26.7 | x | 0.761 | -8.9%
NC(=O)C1(N2CCCCC2)CCN(CC(=O)Nc2ccc(Oc3ccccc3)cc2)CC1
→ 2.7 | 1.5 | x | 2.2 | x | 0.709 | 3.8%
CS(=O)(=O)N(Cc1ccc(Cl)cc1)c1ccc(C(=O)Nc2cccnc2)cc1
→ 5.3 | 1.8 | x | 1.4 | x | 0.706 | -3.1%

The list is partial, so the mix of outcomes need not match the whole.
